Compound activity as filed in PubChem BioAssay.
GLA inh pH 4.5 – inhibitors of human alpha-galactosidase A at pH 4.5; P06280; purified enzyme, 4-MU-alpha-Gal fluorescence, pH 4.5; activity change, negative = inhibition, % at 105 µM; 230,000 tested, under 10 active; inconclusive = small, poorly fitted or top-dose-only inhibition, or a rising curve; inactive = flat fitted curve, though single readings scatter; no compound was filed as active;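 note: 0% = full activity with enzyme and -100% = basal without enzyme; dose as in the result columns while the protocol names 77 µM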
Target sequence (P06280 whole entry, looked up): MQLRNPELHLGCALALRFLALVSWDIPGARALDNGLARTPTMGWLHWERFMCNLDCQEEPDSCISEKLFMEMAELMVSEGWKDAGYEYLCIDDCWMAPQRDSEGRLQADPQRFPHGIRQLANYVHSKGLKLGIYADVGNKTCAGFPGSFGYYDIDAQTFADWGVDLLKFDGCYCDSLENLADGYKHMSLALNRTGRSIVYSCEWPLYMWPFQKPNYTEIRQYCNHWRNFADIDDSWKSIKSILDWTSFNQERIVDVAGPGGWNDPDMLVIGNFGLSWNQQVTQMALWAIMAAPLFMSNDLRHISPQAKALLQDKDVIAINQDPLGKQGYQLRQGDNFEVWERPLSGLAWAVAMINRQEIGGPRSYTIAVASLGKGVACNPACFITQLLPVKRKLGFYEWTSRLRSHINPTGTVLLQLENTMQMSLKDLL
Rango complex inh – Rango-importin beta binding inhibition; Rango CFP/YFP FRET sensor + importin beta, 45 min; Potency, µM (doses to about 92.2 µM), without a hit: top-dose inhibition of complex formation; 340,000 compounds, 0.031% hits; active = rising FRET ratio curve, often small or poorly fitted; inconclusive = mostly compound fluorescence or quenching in the first reads; inactive = flat curves in all reads;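 note: potency is the fitted concentration of half-maximal effect; 0% = DMSO wells and 100% = buffer wells lacking importin beta; nearly all actives have a fitted effect of over 15% in size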
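FRET biosensor Rango (snurportin 1 IBB between N-terminal EYFP and C-terminal Cerulean), 50 nM in PBS/1 mM DTT/0.02% Tween-20/0.1% BSA, preincubated 5 min RT with compound; 0.125 microM importin beta added, 45 min RT, CFP/YFP FRET ratio read.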
miR-21 FLuc – raises the signal of a miR-21 reporter. AID 2288. Potency, µM (series often up to 38.3 µM), inactives show at the highest dose reporter change, positive = more light. HeLa miR-21 FLuc reporter, luciferase, 48 h. 340,000 tested, under 10 active; active = well fitted rising curve with a large enough effect; inconclusive = small, poorly fitted or top-dose-only effect; inactive = no such curve, though single readings can be large or run the other way;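 note: % of control where 0% means no effect; miR-21 action dims this reporter so a rising signal means less miR-21 action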
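Using DMEM plus 10% FBS, HeLa miR-21-FLuc cells are incubated with test compounds (final up to about 40uM) for 48 hours; firefly luciferase signal is then imaged following reagent-mediated lysis.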
Rango release inh – inhibition of RanGTP-driven Rango-importin beta dissociation. O95149+P62826. Biochemical FRET Rango-importin beta, RanGTP-induced dissociation. Potency, µM (top dose mostly 46.1 µM), without a hit: at the highest dose activity change, negative = inhibition. 340,000 compounds, 0.071% hits. AID 540253; active means falling FRET ratio curve, often poorly fitted, with flat reads before Ran was added; inconclusive means other falling curves, or compound fluorescence or quenching; inactive means flat or rising ratio curve;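 note: potency is the fitted concentration of half-maximal effect; % of control where 0% means no effect; nearly all actives have a fitted effect of over 45% in size; -100% = wells without RanGTP and RCC1; the record marks most hits as doubtful in a second field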
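Two FRET readings bracket the reaction: one 5 min after compound meets Rango–importin beta, another 45 min after RanGTP-RCC1 (0.6 uM Ran, 0.2 uM RCC1, 2 mM GTP) is added. Only the second defines inhibition.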
Active calls of the source: *; & = joins results of further samples. This is a subset; rates above refer to the full screens.

Screening Cc1ccc(N(C(=O)c2csnn2)C(C(=O)NC2CCCCC2)c2ccncc2)cc1 (configuration not stated) returned Rango complex inh -0.3%, miR-21 FLuc -4% and Rango release inh 2%.
`Cc1c(NC(=O)Cn2nc(C(F)(F)F)c3c2CCCC3)c(=O)n(-c2ccccc2)n1C` gave GLA inh pH 4.5 -5, Rango complex inh 0.1%, miR-21 FLuc -2% and Rango release inh -4%.
COC(=O)c1c(-c2c(Cl)cccc2Cl)noc1NC(=O)NN1CCCCC1 was read as GLA inh pH 4.5 2, Rango complex inh -1.9%, miR-21 FLuc 4% and Rango release inh -1%.
For O=C(NCCc1ccc(F)cc1)Nc1ccccc1 the results were Rango complex inh 0.4%, miR-21 FLuc -36% and Rango release inh -7%.
For O=C(NNC(=O)c1nn(-c2ccc(F)cc2)ccc1=O)c1ccc(C(F)(F)F)cc1 the results were GLA inh pH 4.5 -2, Rango complex inh -1.9%, miR-21 FLuc 8% and Rango release inh -11%.
For Oc1[nH]c2ccc(Br)cc2c1N=Nc1ccc(C(F)(F)F)cn1 the results were GLA inh pH 4.5 -6, Rango complex inh 1.0%, miR-21 FLuc 2% and Rango release inh -7%.
O=C(Nc1nccs1)C1C2CC3OC(=O)C1C3C2 (configuration not stated) was read as GLA inh pH 4.5 4, Rango complex inh -1.3%, miR-21 FLuc -2% and Rango release inh 27%.
Screening O=C(CCCCn1cnc2c(=S)nc[nH]c21)Nc1ccc(C(=O)O)c(O)c1 returned Rango complex inh 3.9% and Rango release inh 47%.
For CC(C)C(NC(=O)c1c(F)cccc1F)C(=O)NCc1ccc(S(=O)(=O)N2CCOCC2)cc1 (configuration not stated) the results were Rango complex inh -2.9% and Rango release inh 0%.
Screening Cc1ccc(NS(=O)(=O)c2c(C(=O)N3CCCC3)c(C)n(C)c2C)cc1 returned Rango complex inh -0.3%, miR-21 FLuc -2% and Rango release inh 4%.
Screening O=C(NCc1ccccc1)c1ccc[n+]([O-])c1 returned Rango complex inh 2.2%, miR-21 FLuc 7% and Rango release inh -4%.
`Cc1ccc(C(=O)N2CCC3(CC2)NCCc2[nH]cnc23)cc1C` gave Rango complex inh -1.5%, miR-21 FLuc 0% and Rango release inh 10%.
For O=C(C(=O)N1CCOCC1)c1cn(CC(=O)N2CCc3ccccc3C2)c2ccccc12 the results were GLA inh pH 4.5 -12, Rango complex inh 0.3%, miR-21 FLuc 1% and Rango release inh 0%.
`COc1cccc(CNC(=O)Cn2cccc2C(=O)c2ccccc2C)c1` gave Rango complex inh -0.7%, miR-21 FLuc -27% and Rango release inh -1%.
For O=C(Cn1c[n+](CC(=O)c2ccc([N+](=O)[O-])cc2)cn1)c1ccc([N+](=O)[O-])cc1 the results were GLA inh pH 4.5 3&-3, Rango complex inh -1.0%&1.8%, miR-21 FLuc -5%&-1% and Rango release inh inconclusive.
For O=c1c(C(c2c(O)nc3n(c2=O)CCS3)c2cccc3ccccc23)c(O)nc2n1CCS2 the results were GLA inh pH 4.5 -9, Rango complex inh 0.4%, miR-21 FLuc -3% and Rango release inh 15%.
COc1ccc(N(CC(=O)NCCC2=CCCCC2)S(=O)(=O)c2ccccc2)cc1 was read as GLA inh pH 4.5 -11, Rango complex inh -5.9%, miR-21 FLuc 7% and Rango release inh -16%.
For O=C(N=C1c2ccccc2CN1c1ccc(F)c(Cl)c1)c1cccnc1Cl the results were GLA inh pH 4.5 inconclusive and miR-21 FLuc -60%.
For Cc1oc(-c2ccccc2Cl)nc1CS(=O)(=O)CC(=O)N1CCOCC1 the results were Rango complex inh -1.6%, miR-21 FLuc -18% and Rango release inh -13%.
Cc1cc(C)n2cc(-c3ccc(Cl)cc3)c(C(=O)O)c2n1 was read as GLA inh pH 4.5 -3, Rango complex inh 0.5%, miR-21 FLuc -41% and Rango release inh -3%.
COc1cccc(C(=O)NCC(=O)N2CCC3(CC2)NCCc2[nH]cnc23)c1OC was read as Rango complex inh -1.6%, miR-21 FLuc -5% and Rango release inh -3%.
`Cc1ccc(-n2nc3c(c2NC(=O)c2ccco2)CS(=O)C3)c(C)c1` (configuration not stated) gave Rango complex inh 0.0% and Rango release inh -12%.
Screening COc1cc(CCC(=O)OCC(=O)Nc2ccccc2F)cc(OC)c1OC returned Rango complex inh -2.1%, miR-21 FLuc 0% and Rango release inh -7%.
For O=C(OCC(=O)c1ccco1)c1ccc2ncsc2c1 the results were GLA inh pH 4.5 -3, Rango complex inh 0.1%, miR-21 FLuc -8% and Rango release inh 1%.
For CC(C)(C)Nc1nc(NCc2cccnc2)nc(N2CCOCC2)n1 the results were GLA inh pH 4.5 -6, Rango complex inh -0.1%, miR-21 FLuc -13% and Rango release inh -2%.
`Cc1ccc(CN2C(=O)NC(Cc3c[nH]c4ccccc34)C2=O)cc1` (configuration not stated) gave GLA inh pH 4.5 -4, Rango complex inh -1.0%, miR-21 FLuc 1% and Rango release inh 43%.
Screening COc1cccc(C2=NOC(C(=O)NCCN3CCOCC3)C2)c1 (configuration not stated) returned GLA inh pH 4.5 3, Rango complex inh -0.3%, miR-21 FLuc -25% and Rango release inh -8%.
Screening CCN(Cc1cccs1)C(=O)CN1CCN(S(=O)(=O)c2ccc3c(c2)OCCCO3)CC1 returned Rango complex inh 1.2% and Rango release inh 22%.
Screening O=C(/C=C/c1ccc(Cl)cc1Cl)Nc1cccc(S(=O)(=O)NC2=NCCC2)c1 returned GLA inh pH 4.5 -2, Rango complex inh -1.3%, miR-21 FLuc 23% and Rango release inh 0%.
CCN(CC)S(=O)(=O)c1ccc(C)c(C(=O)Oc2cccc(-c3cnc4ccccc4n3)c2)c1 was read as GLA inh pH 4.5 3, Rango complex inh 1.9%, miR-21 FLuc -10% and Rango release inh -12%.

Quoted at random: 4 records from the list, in no set order.
Screening CCN(Cc1cccs1)C(=O)CN1CCN(S(=O)(=O)c2ccc3c(c2)OCCCO3)CC1 returned Rango complex inh 1.2% and Rango release inh 22%.
Screening COc1cccc(C2=NOC(C(=O)NCCN3CCOCC3)C2)c1 (configuration not stated) returned GLA inh pH 4.5 3, Rango complex inh -0.3%, miR-21 FLuc -25% and Rango release inh -8%.
CCN(CC)S(=O)(=O)c1ccc(C)c(C(=O)Oc2cccc(-c3cnc4ccccc4n3)c2)c1 was read as GLA inh pH 4.5 3, Rango complex inh 1.9%, miR-21 FLuc -10% and Rango release inh -12%.
`Cc1ccc(CN2C(=O)NC(Cc3c[nH]c4ccccc34)C2=O)cc1` (configuration not stated) gave GLA inh pH 4.5 -4, Rango complex inh -1.0%, miR-21 FLuc 1% and Rango release inh 43%.

(next part)
For Cc1cccc(-c2nnc(NC(=O)c3ccc(Cl)cc3)o2)c1 the results were GLA inh pH 4.5 6, Rango complex inh -0.4%, miR-21 FLuc -5% and Rango release inh 19%.
Screening COc1ccc(NCc2nc3ccccc3n2C)cc1 returned Rango complex inh -1.3%, miR-21 FLuc -36% and Rango release inh -6%.
For COc1cc(C(=O)NCCNc2nc3ccc(C)cc3cc2C#N)cc(OC)c1OC the results were Rango complex inh inconclusive, miR-21 FLuc 1% and Rango release inh inconclusive.
Screening O=C(C1=C[C@H](c2coc3ccccc3c2=O)C[C@H](OCCCCO)O1)N1CCN(Cc2ccc3c(c2)OCO3)CC1 returned GLA inh pH 4.5 3, Rango complex inh -1.6%, miR-21 FLuc -7% and Rango release inh -5%.
For COc1ccc(CC2(CO)CCN(S(=O)(=O)c3sccc3C)CC2)cc1 the results were GLA inh pH 4.5 -12, Rango complex inh -3.5%, miR-21 FLuc 0% and Rango release inh 1%.
O=C(O)C[C@]1(C(=O)Nc2ccc(F)cc2)CC(/C=C/c2ccccc2)=NO1 was read as Rango complex inh 0.4%, miR-21 FLuc -1% and Rango release inh 22%.
For CN(CCOc1ccccc1)CC(=O)Nc1ccc([N+](=O)[O-])cc1Cl the results were GLA inh pH 4.5 3, Rango complex inh 1.7%, miR-21 FLuc -8% and Rango release inh -12%.
CCN(CC)S(=O)(=O)c1ccc(NC(=O)CNC2CCCCC2)cc1 was read as Rango complex inh 2.9%, miR-21 FLuc 1% and Rango release inh 15%.
Screening Cc1nn(Cc2ccccc2)c(Cl)c1C(=O)OCC#N returned GLA inh pH 4.5 10, Rango complex inh 0.0%, miR-21 FLuc -2% and Rango release inh -15%.
For O=C(CN1C(=O)C(=O)N(C2CCCC2)C1=O)Nc1cc(Cl)ccc1[N+](=O)[O-] the results were Rango complex inh -2.1% and Rango release inh -12%.
Screening Cc1cccc(NC(=S)N2CCN(S(=O)(=O)c3ccc(F)cc3)CC2)c1 returned Rango complex inh 0.1%, miR-21 FLuc 0% and Rango release inh 23%.
Cc1[nH]c2ccc(Cl)cc2c(=O)c1CN1CCCC1 was read as GLA inh pH 4.5 2, Rango complex inh -1.0%, miR-21 FLuc -1% and Rango release inh -11%.
CS(=O)(=O)c1cccc(-c2nnc(NC(=O)c3ccc4ncsc4c3)o2)c1 was read as Rango complex inh 4.6% and Rango release inh 0%.
`O=C1NC(C(F)(F)F)(C(F)(F)F)N=C2SC=CN12` gave GLA inh pH 4.5 5, Rango complex inh 0.2%, miR-21 FLuc 1% and Rango release inh 2%.
`CCOC(=O)C1CCN(C(=O)c2ccc(N(C)S(C)(=O)=O)cc2)CC1` gave GLA inh pH 4.5 -8, Rango complex inh -2.7%, miR-21 FLuc 1% and Rango release inh 1%.
Screening CCCCN1C(=O)C(=O)N(CC(=O)Nc2ccc(OC(F)(F)F)cc2)C1=O returned Rango complex inh -1.4% and Rango release inh 0%.
For CN(C(=O)C1CCN(S(=O)(=O)c2cccs2)CC1)C1CCCCC1 the results were GLA inh pH 4.5 -19, Rango complex inh -0.9%, miR-21 FLuc -19% and Rango release inh -2%.
CCn1c(CSc2nc3ccccc3[nH]2)nc2cc(C(=O)O)ccc21 was read as GLA inh pH 4.5 6, Rango complex inh inconclusive, miR-21 FLuc -2% and Rango release inh inconclusive.
`CN1CCN(C(=O)c2cc3sccc3n2CC(=O)c2ccccc2)CC1` gave GLA inh pH 4.5 1, Rango complex inh 3.6%, miR-21 FLuc -3% and Rango release inh 1%.
Screening O=C(c1cc(Br)c(Br)s1)N1CCN(c2ccccn2)CC1 returned Rango complex inh -1.6%, miR-21 FLuc 0% and Rango release inh -5%.
For COc1ccc(NC(=O)Cc2ccc(Cl)cc2Cl)cn1 the results were GLA inh pH 4.5 -17, Rango complex inh 4.1%, miR-21 FLuc -1% and Rango release inh 2%.
For CC(C(=O)O)n1nc2ccccc2n1 (configuration not stated) the results were GLA inh pH 4.5 -3, Rango complex inh -5.1%, miR-21 FLuc 0% and Rango release inh 1%.
CC(C)Cc1[nH]c(=O)c(C#N)c2c1COC(C)(C)C2 was read as GLA inh pH 4.5 -5, Rango complex inh 5.4%, miR-21 FLuc -4% and Rango release inh 16%.
`O=C(CN1CCN(c2ccccc2F)CC1)NC(=O)NCc1ccco1` gave GLA inh pH 4.5 -2, Rango complex inh 1.0%, miR-21 FLuc -1% and Rango release inh 1%.
Screening Nc1nc(SCC(=O)N2N=C3/C(=C/c4ccco4)CCCC3C2c2ccco2)n[nH]1 (configuration not stated) returned GLA inh pH 4.5 2, Rango complex inh -0.3%, miR-21 FLuc 0% and Rango release inh -2%.
Screening CCOC(=O)N1CCN(C(=O)COC(=O)c2cccc(C)c2[N+](=O)[O-])CC1 returned Rango complex inh -6.0% and Rango release inh 10%.
`Cc1cc(C(=O)COC(=O)c2ccc(O)cc2O)c(C)n1C(C)C` gave Rango complex inh 4.5% and Rango release inh 5%.
`Cc1ccc(-c2csc(NC(=O)C3CSC4(C)CCC(=O)N34)n2)cc1` (configuration not stated) gave Rango complex inh -0.4% and Rango release inh -15%.
CCOC(=O)CSc1nnc(-c2ccccc2)o1 was read as GLA inh pH 4.5 1, Rango complex inh -2.1%, miR-21 FLuc 1% and Rango release inh -3%.
CCN(C(C)=O)c1nnc(CSc2nc3ccccc3s2)s1 was read as GLA inh pH 4.5 4, Rango complex inh 0.1%, miR-21 FLuc -24% and Rango release inh -3%.
Screening Cn1nc(C(=O)NCc2ccccc2)c2c1-c1ccccc1S(=O)(=O)C2 returned Rango complex inh 0.6%, miR-21 FLuc 1%&9% and Rango release inh 0%.
Screening CCOc1ccc(C(=O)Nc2ccccc2NC(C)=O)cc1OCC returned GLA inh pH 4.5 1, Rango complex inh -0.4%, miR-21 FLuc 0% and Rango release inh -27%.
